# From PubChem
# Six1-Eya2 inh – blocks human Six1 binding to Eya2. 0.56% of 360,000 active. AlphaScreen GST-Six1/His-Eya2 binding, biochemical; hits give low values; control for the full effect not named in the record. Q15475+O00167. activity change, % (no concentration beside the values); in the data active = activity change below about -65%; inconclusive = about -30% to -65%; inactive = above about -30%; note: % is set by controls: 0 for no effect and ±100 for the full control effect; compound concentration not given in the record
#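 GST-Six1 + His-Eya2 (5X stock: 250/500 nM); Tris pH 8.0, 300 mM NaCl, 0.05% BSA, 0.02% Tween 20; GSH donor/Ni acceptor beads; 1 h 37 °C dark; AlphaScreen readout.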
# PINK1 modulator – modulators of PINK1 expression; PINK1 immunofluorescence, high-content cytometry, 24 h; Potency, µM (series often up to 76.6 µM), inactives show at the top dose activation (PINK1 increase), actives largely listed as activators; 0.2% of 410,000 active; AID 624263; active = well fitted activation curve with a large enough effect; inconclusive = small, poorly fitted or top-dose-only effect; inactive = flat fitted curve, though single readings scatter; cell line not stated here;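 note: potency is the fitted concentration of half-maximal effect; % of control where 0% means no effect; nearly all actives have a fitted effect of over 65% in size; a mitochondrial uncoupler was the plate control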
#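 PINK1 protein level read as immunofluorescence by microplate cytometer in a fixed, stained stable cell line after 24 h exposure to five compound concentrations, with CCCP as control.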
# D2 agonist – agonists of human D2 dopamine receptor (beta-arrestin) | P14416 | DiscoveRx PathHunter D2 beta-arrestin, luminescence, 90 min; 100% = 57 uM dopamine signal | activation, % (test concentration not listed) | 0.084% of 360,000 active; in the data active = activation above about 40%; inconclusive = about 15% to 40%; inactive = below about 15%; note: compound concentration not given in the record; the text of the record calls up to 30% inactive
# Target sequence (P14416 whole entry, looked up): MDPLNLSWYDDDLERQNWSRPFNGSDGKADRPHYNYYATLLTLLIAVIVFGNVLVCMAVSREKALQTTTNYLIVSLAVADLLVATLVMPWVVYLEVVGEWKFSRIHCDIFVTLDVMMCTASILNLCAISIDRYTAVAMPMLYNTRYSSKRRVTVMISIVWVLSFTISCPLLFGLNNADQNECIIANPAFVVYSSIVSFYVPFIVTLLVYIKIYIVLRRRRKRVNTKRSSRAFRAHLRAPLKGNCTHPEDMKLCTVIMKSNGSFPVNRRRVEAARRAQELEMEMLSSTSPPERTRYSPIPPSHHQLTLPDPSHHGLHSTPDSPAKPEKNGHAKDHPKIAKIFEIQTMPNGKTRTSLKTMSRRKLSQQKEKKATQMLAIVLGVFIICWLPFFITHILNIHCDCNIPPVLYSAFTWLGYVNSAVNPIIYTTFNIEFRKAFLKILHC
#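 Agonist mode: compounds alone added to overnight-plated D2 PathHunter cells for 90 min at 37 C, with 57 uM final dopamine (EC100) defining full response. Beta-arrestin recruitment detected by chemiluminescent reagent, read after 1 h at ambient temperature.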
# TRPML1 inh – blocks the human TRPML1 channel; Q9GZU1; TRPML1-inducible cells, Ca2+ dye fluorescence, FDSS; hits give low values; inhibition of EC80 agonist-evoked calcium signal; activity change, negative = inhibition, % (test concentration not listed); 0.02% of 390,000 active; AID 624415; in the data active means activity change below about -50%; inconclusive means about -30% to -50%; inactive means above about -30%;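 note: stimulus is agonist 54-4 at its EC80 concentration; % is set by controls: 0 for no effect and ±100 for the full control effect; compound concentration not given in the record; the text of the record puts the active cut at -80%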
# Target sequence (Q9GZU1 whole entry, looked up): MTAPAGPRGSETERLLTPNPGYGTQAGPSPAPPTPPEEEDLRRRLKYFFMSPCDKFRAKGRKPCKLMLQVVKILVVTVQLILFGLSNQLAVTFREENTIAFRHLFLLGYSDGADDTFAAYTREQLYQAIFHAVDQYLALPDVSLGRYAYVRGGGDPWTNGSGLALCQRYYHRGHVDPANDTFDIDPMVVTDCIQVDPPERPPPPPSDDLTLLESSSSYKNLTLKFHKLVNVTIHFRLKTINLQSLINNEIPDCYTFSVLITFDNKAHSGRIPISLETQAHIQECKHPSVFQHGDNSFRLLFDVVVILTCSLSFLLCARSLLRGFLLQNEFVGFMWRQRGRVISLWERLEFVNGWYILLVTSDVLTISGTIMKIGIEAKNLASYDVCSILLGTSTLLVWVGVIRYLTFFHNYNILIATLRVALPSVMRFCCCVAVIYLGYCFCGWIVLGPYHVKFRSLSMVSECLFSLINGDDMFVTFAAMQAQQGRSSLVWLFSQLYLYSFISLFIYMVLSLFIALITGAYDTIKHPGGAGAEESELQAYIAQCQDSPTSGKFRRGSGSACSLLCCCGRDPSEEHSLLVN
#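 TRPML1-DL cells, Tet-induced overnight (~16 h, 37 °C) at 1,500 cells/well, were loaded with Ca8 no-wash dye plus quencher for 45-90 min at room temperature. Compounds were pinned during FDSS kinetic reading; agonist 54-4 at EC80 (4 uM final) then added.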
# CtBP-E1A blk – CtBP/E1A binding inhibition. 0.49% of 340,000 active. activity change, % (concentration not given with the values). AlphaScreen GST-E1A/His-CtBP binding, 1536-well; hits give low values; control for the full effect not named in the record; in the data active means activity change below about -65%; inconclusive means about -30% to -65%; inactive means above about -30%; note: % is set by controls: 0 for no effect and ±100 for the full control effect
#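 Protein mix (5X: 125 nM each GST-E1A, His-CtBP) was incubated with pinned compound 2 h at 37 deg C in dark, in 50 mM Tris pH 8.0 buffer with 300 mM NaCl. Glutathione donor and nickel acceptor beads followed; AlphaScreen signal read after 1 h.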
# TRPML1 ag – human mucolipin-1 channel agonism. TRPML1-expressing cells, Ca2+ dye fluorescence, FDSS; host cell line not named in the record; reference of the full effect not given here. activation, % (no concentration beside the values). 0.12% of 410,000 active. Q9GZU1; in the data active = activation above about 50%; inconclusive = about 30% to 50%; inactive = below about 30%; note: 0% is about no effect; the text of the record puts the active cut at 80%
#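 Kinetic FDSS Ca2+ read in Tet-induced TRPML1-DL cells (ABD Ca8 dye plus quencher, 45-90 min RT loading): baseline, then compound, then 110 s agonist window; EC80 agonist 54-4 at 4uM final added afterwards for a 110 s antagonist window.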
# * = called active by the depositor; u = inconclusive; x = not tested or not shown; & = joins results of further samples; [ ] = another dose, or the depositor's remark.
cpd	Structure	TRPML1 inh	PINK1 modulator	CtBP-E1A blk
1	COc1ccc(Cl)cc1N(C(=O)c1ccco1)C(C(=O)NC1CCCC1)c1cccnc1 (stereo not given)	11	0.0%	0
2	Cc1cc(Cl)c2oc(C(=O)N(C)CCCN3CCOCC3)c(C)c2c1	9	-0.4%	1
3	CCCCC(=O)Nc1nc2ccc3nc(C)sc3c2s1	0	3.5%	-4
4	CCOc1cc(C(=O)NCCC(=O)N2CCC3(CC2)NCCc2[nH]cnc23)cc(OCC)c1OCC	-2	0.0%	1
5	COc1cc(S(=O)(=O)NCc2ccncc2)c(OC)cc1Cl	-3	-0.7%	-26
6	CCN1CCN(c2cc(C)c3cc(NC(=O)c4cccs4)ccc3n2)CC1	-15	2.7%	-19
7	C=CCn1c(-c2ccc3[nH]c(C)c(C)c3c2)n[nH]c1=S	30	1.2%	-13
8	COc1cccc(C(=O)Cn2c(NCCCO)nc3ccccc32)c1	x	1.6%	x

cpd	D2 agonist	TRPML1 ag	Six1-Eya2 inh
1	-5.1	-0.1	9
2	5.1	-0.6	-1
3	3.8	-0.9	-26
4	-0.5	-0.1	2
5	-1.1	-0.5	2
6	-1.8	-0.3	-9
7	-1.4	0.6	-15
8	-5.8	x	1

cpd	Structure	TRPML1 inh	PINK1 modulator	CtBP-E1A blk
9	CCc1ccc(C(=O)COC(=O)c2n[nH]c3ccccc23)cc1	-8	2.7%	-1
10	COc1ccc(C(=O)Nc2ccccc2-c2nc3ccccc3s2)c(OC)c1	12	2.2%	x
11	CC(C)N(CCNCc1nnc(-c2ccccc2)o1)C(C)C	83	0.0%	x
12	Cc1ccc(CCNC(=O)C2CCN(S(=O)(=O)c3ccc4c(c3)CCC(=O)N4)CC2)cc1	-2	16%	3
13	CC(C)(C)NCCCCOc1ccccc1F	4	-0.8%[38.3 µM]	-2
14	COc1ccc(CCCc2nnc(SCC(=O)NN)o2)c(C)c1	31	1.4%	-12
15	CCC(C(=O)Nc1nccs1)c1ccccc1 (stereo not given)	4	3.7%	-1
16	CCS(=O)(=O)Nc1cccc(C2=NN(S(C)(=O)=O)C(c3ccccc3)C2)c1 (stereo not given)	9	0.0%	2

cpd	D2 agonist	TRPML1 ag	Six1-Eya2 inh
9	1.0	0.8	-7
10	x	1.6	x
11	-3.1	0.5	8
12	-4.8	0.0	-1
13	-1.1	0.3	-3
14	0.8	-0.6	-9
15	-3.1	-0.5	3
16	1.3	-0.6	-2

cpd	Structure	TRPML1 inh	PINK1 modulator	CtBP-E1A blk
17	O=C(O)c1ccccc1C(=O)c1ccc(Sc2ccc(Cl)cc2)c([N+](=O)[O-])c1	-1	-1.4%	0
18	COc1cccc(CC(=O)N(CCC2=CCCCC2)c2c(N)n(Cc3ccccc3)c(=O)[nH]c2=O)c1	12	-5.4%	2
19	O=C(Cc1ncc(C(F)(F)F)cc1Cl)NNc1cccc(F)n1	-15	1.8%	x
20	O=C(c1cccc(N2C(=O)C3C4C=CC(C4)C3C2=O)c1)N1CCCc2ccccc21 (stereo not given)	1	1.6%	9
21	COc1ccc(CN2CCCC(CNC(=O)c3ccc(F)cc3)C2)c(C)c1C (stereo not given)	7	3.6%	x
22	CC1CCC(NC(=O)CCS(=O)(=O)c2ccc3c(c2)CC(C)N3C(=O)C2CC2)CC1 (stereo not given)	-6	0.3%	5
23	CCN1CCN(C(=O)c2ccc3c(=O)n(CCc4ccccc4)c(=O)[nH]c3c2)CC1	0	0.1%	6
24	Cc1ccc(NC(=O)CSc2nnc3n2CCCCC3)cc1S(=O)(=O)N1CCOCC1	-2	0.3%	-23

cpd	D2 agonist	TRPML1 ag	Six1-Eya2 inh
17	9.3	-0.4	4
18	3.5	2.4	2
19	-0.9	1.5	0
20	-1.1	-1.4	0
21	-8.4	0.4	2
22	1.7	1.1	2
23	0.3	0.2	-6
24	-1.5	-0.4	7

cpd	Structure	TRPML1 inh	PINK1 modulator	CtBP-E1A blk
25	CC(OC(=O)c1cc(=O)[nH]c2ccccc12)c1ccccc1 (stereo not given)	-5	-1.7%[38.3 µM]	4
26	O=C(Cn1cncn1)NCc1ccccc1Br	-11	-0.9%	3
27	Cc1cccc(-n2cnc3c(sc4nc(N5CCOCC5)c5c(c43)CCCC5)c2=O)c1	21	-0.6%	-1
28	Cc1ccn2c(NC3CCCC3)c(-c3ccsc3)nc2c1	-13	-1.5%	2
29	CCNC(=O)n1cc(-n2cncn2)c(-c2ccc(Cl)cc2)n1	12	3.7%	0
30	O=C(N/N=C/c1ccncc1)NC1CCCCC1	-5	1.1%	x
31	COc1cccc(CNC(=O)c2nnn(CC(=O)Nc3cccc(C)c3)c2N)c1	-24	14%	8
32	COc1cc(NC(=O)CN2CCC(Cc3ccccc3)CC2)c(C)cc1[N+](=O)[O-]	21	5.3%	-2

cpd	D2 agonist	TRPML1 ag	Six1-Eya2 inh
25	0.5	-0.5	-5
26	-3.4	-0.7	2
27	-1.6	1.9	-5
28	1.6	0.2	11
29	4.9	-0.2	2
30	-5.2	0.4	10
31	-1.0	1.0	7
32	-0.3	-0.8	-2

# Entries of single compounds, quoted from the list:
# Profile of COc1cc(NC(=O)CN2CCC(Cc3ccccc3)CC2)c(C)cc1[N+](=O)[O-] : TRPML1 inh: 21; PINK1 modulator: 5.3%; CtBP-E1A blk: -2; D2 agonist: -0.3; TRPML1 ag: -0.8; Six1-Eya2 inh: -2
# Profile of CCCCC(=O)Nc1nc2ccc3nc(C)sc3c2s1 : TRPML1 inh: 0; PINK1 modulator: 3.5%; CtBP-E1A blk: -4; D2 agonist: 3.8; TRPML1 ag: -0.9; Six1-Eya2 inh: -26

# Next section
cpd	Structure	TRPML1 inh	PINK1 modulator	CtBP-E1A blk
33	COc1ccc(-n2nnnc2S(=O)(=O)Cc2ccc(C(=O)O)cc2)cc1	3	5.6%[38.3 µM]	2
34	Cc1ccc(C(=O)C2=C(O)C(=O)N(CCCN3CCOCC3)C23C(=O)N(C)c2ccccc23)o1 (stereo not given)	8	0.8%	16
35	CCN(CC)S(=O)(=O)c1ccc(/C=C/C(=O)OCC(=O)NCc2ccc3c(c2)OCO3)cc1	-7	2.8%	13
36	CCC(Oc1ccccc1)C(=O)Nc1ccc(O)c(-c2nc3cc(C)ccc3o2)c1 (stereo not given)	-9	1.1%	x
37	CCc1cccc(C)c1NC(=O)CSc1nnc(Cc2csc(C)n2)o1	-7	2.7%	-2
38	O=C(Nc1ccccc1)c1ccc(CN2CCc3ccccc3C2)cc1	10	7.4%	11
39	CCNc1nc(NCC)n2c(SCC(=O)Nc3ccccc3[N+](=O)[O-])nnc2n1	2	-0.8%	-18
40	Cc1ccc(S(=O)(=O)N2CCN(c3ccc(C(F)(F)F)cc3[N+](=O)[O-])CC2)cc1	8	-0.1%	-20

cpd	D2 agonist	TRPML1 ag	Six1-Eya2 inh
33	-3.5	-0.6	-3
34	0.3	-0.9	11
35	1.3	0.5	-23
36	x	0.3	x
37	-4.2	0.3	12
38	0.5	0.6	-5
39	-4.5	0.4	7
40	-2.2	-1.3	-24

cpd	Structure	TRPML1 inh	PINK1 modulator	CtBP-E1A blk
41	Cc1cc(=O)n2c(n1)NC(Nc1cccc(C)c1C)=NC2c1ccccc1 (stereo not given)	16	1.7%	6
42	O=C(COC(=O)/C=C/c1ccccc1Cl)NCCc1ccc(Cl)cc1Cl	-5	0.1%	10
43	CCOC(=O)CN(Cc1ccc(OC)c(OC)c1)S(=O)(=O)c1ccc(OC)cc1	-17	x	5
44	CC(=O)N1CCC(N(C(=O)Nc2ccc(Cl)cc2)C(C)C)CC1	-6	0.5%	6
45	CCOC(CCNC(=O)c1cn(CCOC)c(=O)c2c1c1ccccc1n2C)OCC	x	-1.0%	0
46	COc1cc(NC(=O)C2CCN(S(=O)(=O)c3ccc4c(c3)CCCC(=O)N4)CC2)cc(OC)c1	11	-0.6%	x
47	O=C1NC2(CCCCCC2)C(=O)N1Cc1ccc(F)cc1Cl	-9	7.9%	8
48	CCc1ccccc1NC(=O)C1CCN(c2nc3ccccc3[nH]2)CC1	2	-0.4%	x

cpd	D2 agonist	TRPML1 ag	Six1-Eya2 inh
41	-1.7	3.6	0
42	-3.1	2.8	2
43	2.5	-0.3	0
44	-4.0	-0.8	0
45	8.5	x	2
46	x	2.6	x
47	0.1	-0.3	-2
48	x	0.7	x

cpd	Structure	TRPML1 inh	PINK1 modulator	CtBP-E1A blk
49	Cc1ccc(/C=C2\Oc3c(ccc(O)c3CN3CCN(C)CC3)C2=O)cc1	-6	0.4%	x
50	CCC(C)(C(=O)NC1CCCC1)N(Cc1cccs1)C(=O)c1ccccn1 (stereo not given)	-12	0.4%	3
51	CCCCn1c(SCC(=O)Nc2cc(C)on2)nnc1-c1ccco1	-5	-0.1%	-1
52	CCC(=O)NCCc1nc2cc(NC(=O)Nc3ccccc3)ccc2n1C	4	-1.3%	0
53	C[C@]12CCC[C@H](O1)c1c(cc3c(c1O)C(=O)c1c(O)cc(O)cc1C3=O)O2	-13	u	-3
54	CC(=O)N1C(=O)C2(C(C#N)=C(N)Oc3cc(C)oc(=O)c32)c2ccccc21 (stereo not given)	-8	1.9%	1
55	CC(=O)NC(c1cccc(F)c1)c1nc(-c2cnc3ccccc3c2)cs1 (stereo not given)	x	1.8%	-20
56	COc1cccc(/C=N/NC(=O)C(=O)N2CCCCCC2)c1O	15	-0.3%	-89*

cpd	D2 agonist	TRPML1 ag	Six1-Eya2 inh
49	-11	12	0
50	-7.1	1.3	0
51	-3.1	-0.8	-1
52	-2.4	0.5	-8
53	-2.1	5.4	-26
54	-2.4	0.1	2
55	5.8	-0.3	-2
56	-1.0	0.5	-82*

cpd	Structure	TRPML1 inh	PINK1 modulator	CtBP-E1A blk
57	Cc1ccc2nc(N(CCCN(C)C)C(=O)c3sc4ccccc4c3Cl)sc2c1	19	-2.8%	-27
58	Cc1csc(Nc2nc(N)c(C(=O)Nc3cc(Cl)ccc3F)o2)n1	0	14%	0
59	O=C(CN1CCN(C(=O)c2cccc(S(=O)(=O)N3CCCC3)c2)CC1)Nc1cccc(F)c1	-4	2.2%	-1
60	Clc1cccc(CSc2nccn2-c2ccccc2)c1	35	11%	-25
61	Cc1ccc(SCCN2CCC(NC(=O)OCc3ccccc3)CCC2=O)cc1 (stereo not given)	1	0.5%	x
62	Cn1c(SCC(=O)O)nnc1-c1cccc(NC(=O)c2cccc3ccccc23)c1	x	1.6%	-7
63	Cc1ccc(S(=O)(=O)N2CCN(C(=O)C3CCCCC3)CC2)cc1	-12	-0.3%[38.3 µM]	6
64	CC(C)C(=O)Nc1cc(=O)[nH]c2ncnn12	4	-1.6%	1
65	CC(C)(O)CNC(=O)C(Cc1ccccc1)N1C(=O)c2ccccc2C1=O (stereo not given)	-15	-2.0%	3

cpd	D2 agonist	TRPML1 ag	Six1-Eya2 inh
57	-4.7	-1.1	u
58	-4.5	-1.3	-6
59	7.7	-0.2	12
60	1.3	2.8	u
61	0.5	0.0&-1.0	-1
62	-1.3	x	-4
63	1.5	0.1	6
64	-0.4	-0.1	5
65	8.0	0.8	5

# Random draw from the library (roughly 1% active in at least one column).
